Source: PubChem BioAssay (National Center for Advancing Translational Sciences (NCATS))
VDR inh: vitamin D3 receptor (human) inhibition | P11473 | VDR-SRC2-3 peptide fluorescence polarization, 2 h | Potency, µM, for inactives: max response, negative = inhibition, hits mostly inhibitors | hit rate 0.93% among 400,000; active = well fitted inhibition curve with a large enough effect; inconclusive = small, poorly fitted or top-dose-only effect, or another doubt; inactive = no such curve, though single readings can be large or run the other way; note: series mostly up to about 120 µM
Target sequence (P11473 whole entry, looked up): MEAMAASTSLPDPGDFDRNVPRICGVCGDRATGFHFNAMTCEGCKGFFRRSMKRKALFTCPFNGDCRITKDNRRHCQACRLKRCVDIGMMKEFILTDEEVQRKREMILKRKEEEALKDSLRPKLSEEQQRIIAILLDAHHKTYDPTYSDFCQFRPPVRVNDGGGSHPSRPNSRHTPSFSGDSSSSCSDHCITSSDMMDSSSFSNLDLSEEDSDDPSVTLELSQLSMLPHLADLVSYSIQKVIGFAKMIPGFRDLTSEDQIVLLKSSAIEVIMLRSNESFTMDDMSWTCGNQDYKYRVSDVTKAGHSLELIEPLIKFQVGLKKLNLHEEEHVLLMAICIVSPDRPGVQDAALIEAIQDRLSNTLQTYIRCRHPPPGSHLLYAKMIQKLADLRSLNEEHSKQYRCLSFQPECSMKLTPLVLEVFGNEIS
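The screen uses fluorescence polarization to detect compounds that interfere with recruitment of the SRC2-3 coactivator peptide to VDR; plates are read after 2 h at room temperature.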
* = called active by the depositor; ? = inconclusive; & = joins results of further samples. % is set by controls: 0 for no effect and ±100 for the full control effect; potency is the fitted concentration of half-maximal effect.

SMILES	VDR inh
Cn1cc(SCC(=O)NCc2ccc3c(c2)OCO3)c2ccccc21	-10.1%
Cc1sc(NC(=O)C2CCCCC2C(=O)O)c(C(N)=O)c1-c1ccc(C(C)C)cc1 (stereo not given)	-16.0%
COc1ccc(-c2c(NC(=O)c3ccco3)n(-c3ccccc3)nc(C)c2=O)cc1	0.8%
O=C(Cn1cnc2c(cnn2-c2ccc(F)cc2)c1=O)NCc1ccco1	-2.6%
C/C(CC(=O)NCC(C)C)=N\NC(=O)COc1cc(C)c(Br)cc1Br	-16.8%
Cc1ccc(-c2csc(NC(=O)c3ccno3)n2)cc1	-1.4%
O=C(c1ccc(OC2CCN(Cc3ccccc3OC(F)F)CC2)cc1)N1CCCC1	-8.8%
O=C(c1cccs1)N1CCN(S(=O)(=O)N2CCOCC2)CC1	-1.5%
Cc1ccc(CN2CCCOCCS2(=O)=O)cc1	-20.6%
COc1ccc(S(=O)(=O)NCc2c(-c3ccccc3)noc2C)c(OC)c1	-8.0%
CCOC(=O)C1C(=O)CC(C)(O)C(C(=O)OCC)C1c1ccc(Br)o1 (stereo not given)	-0.2%
CCN(CC)c1ccc(NC(=O)CN(C)S(=O)(=O)c2cccc3nsnc23)c(C)c1	-9.0%
Cc1c(NC(=O)/C(C#N)=C/c2ccc(-c3ccccc3Cl)o2)c(=O)n(-c2ccccc2)n1C	-17.9%
COc1ccc(CN2CCN(S(=O)(=O)c3ccc(F)cc3)CC2)cc1OC	7.2%
O=C(CCC1CCCN(C(=O)CCCc2ccccc2)C1)N1CCN(c2ccccn2)CC1 (stereo not given)	-9.5%
COc1ccccc1C(=O)NCc1ccc2c(c1)CCN2C(=O)c1ccncc1	13.9%
COC(=O)c1ccc(CSc2ncnc3c2nnn3-c2ccc(F)cc2)o1	8.6%
COc1cccc(Cn2c(=O)cc(C)c3c(C)nn(-c4ccc(C)cc4)c32)c1	6.4%
CCCc1ncc(C(O)c2cccc(OC)c2)n1C (stereo not given)	-13.0%
COCCCNC(=O)CCC(=O)N1Cc2ccccc2Oc2ncccc21	4.6%
CCC(C)[C@H](Nc1nc(-c2ccccc2)nc2c1oc1ccccc12)C(=O)O (stereo not given in full)	2.4%
CN(C)Cc1ccccc1-c1ccc2ncnc(N(C)Cc3ccco3)c2c1	?
CC(=O)c1cccc(NC(=O)c2oc(=O)c3ccccc3c2-c2ccccc2)c1	-7.9%
CCOc1ccc(NC(=O)CCC(=O)Oc2ccc(C)cc2)cc1	-0.1%
Cc1nn(C(=O)c2ccccc2)c2c1C(=O)CC(C)(C)C2	0.3%
Cc1cccc(N2CCN(CC(=O)Nc3ccc(-n4cnnn4)cc3)CC2)c1C	23.3%
COCCn1c(C)cc(C(=O)COC(=O)c2ccc(Cl)c(S(N)(=O)=O)c2)c1C	-6.5%
O=C(Cn1cnc2ccccc21)OCC(=O)N1CCCCC1	5.3%
COc1ccccc1CC(=O)Nc1ncc(C)s1	-22.8%
N#Cc1cnn(CC2CCCCC2)c1N	18.9%
CCCN(C(=O)Cn1nc(Cc2ccncc2)c2ccccc2c1=O)c1ccccc1C	-5.3%
Cc1ccc(NC2=C([N+](=O)[O-])CS(=O)(=O)C2)cc1	-1.7%
Cc1ccc(OCC(=O)Nc2ccc(C(=O)OCc3cc(=O)n4nc(C5CC5)sc4n3)cc2)cc1	12.6%
COC(=O)c1cc(-c2cccc(OC)c2)on1	1.0%
CN(C)c1oc(-c2ccccc2F)nc1C#N	-20.5%
Cc1cccc(N/C=C(\[N+](=O)[O-])S(=O)(=O)c2ccccc2)c1	-26.0%
O=C(COC(=O)c1ccc(Cl)cc1)NC1CCCCCC1	-23.3%
Cc1ccc(C(=O)OCC(=O)NNC(=O)COc2ccc(Cl)cc2)c(O)c1	7.6%
CC(C)(C)NC(=O)NC(=O)COC(=O)CNC(=O)c1cccc(F)c1	2.8%
Cn1c(N)c(C(=O)CSc2ncn[nH]2)c(=O)n(C)c1=O	-18.1%
N#Cc1ccc(-c2c(-c3ccccc3)ncc3cc(F)ccc23)cc1	-10.3%
Cc1cc(C)nc(NC(=O)c2c(C(=O)O)noc2C)n1	-0.7%
Cc1cc(Cl)ccc1NC(=O)CN1CCCC1	-16.8%
O=C(CCCN1C(=O)c2ccccc2C1=O)Nc1ccccn1	-5.2%
O=C([C@@H]1CC=C[C@@H]2CCN(C3CC3)C(=O)[C@@H]21)N1CCN(c2ccccc2)CC1	-2.3%

A draw from above in order of length of the SMILES, rising:
SMILES	VDR inh
Cc1cc(Cl)ccc1NC(=O)CN1CCCC1	-16.8%
O=C(CCCN1C(=O)c2ccccc2C1=O)Nc1ccccn1	-5.2%
Cc1ccc(NC2=C([N+](=O)[O-])CS(=O)(=O)C2)cc1	-1.7%
CC(C)(C)NC(=O)NC(=O)COC(=O)CNC(=O)c1cccc(F)c1	2.8%
Cc1ccc(C(=O)OCC(=O)NNC(=O)COc2ccc(Cl)cc2)c(O)c1	7.6%
Cc1ccc(OCC(=O)Nc2ccc(C(=O)OCc3cc(=O)n4nc(C5CC5)sc4n3)cc2)cc1	12.6%
O=C([C@@H]1CC=C[C@@H]2CCN(C3CC3)C(=O)[C@@H]21)N1CCN(c2ccccc2)CC1	-2.3%

Carrying on:
SMILES	VDR inh
CN(C)CCCN(C(=O)c1ccc(C(=O)c2ccccc2)cc1)c1nc2c(F)cccc2s1	-9.1%
CCOC(=O)N1CCN(C(=O)CSCc2ccc(Br)cc2)CC1	18.5%
O=C1OC(c2ccc3c(c2)OCO3)=N/C1=C\c1ccc(C(=O)O)cc1	-7.5%
CN(C)S(=O)(=O)c1cc(C(=O)O)c(NC2CCCCC2)cc1Cl	-22.8%
N#Cc1nnn2c1nc(N)c1c(F)cccc12	4.3%
COc1ccc(-n2c(SCC(=O)NCc3ccccc3)nc3c([nH]c4ccccc43)c2=O)cc1	11.4%
Cc1ccc(CNC(=O)Cn2ccc3cc(S(=O)(=O)N4CCCC4)ccc32)o1	-4.0%
CN(C)CCNS(=O)(=O)c1ccc(N2CCN(c3ccc(F)cc3)CC2)c([N+](=O)[O-])c1	3.0%
O=C(NCC(c1ccco1)N1CCN(c2ccc(F)cc2)CC1)C(=O)NC1CCCC1 (stereo not given)	-10.3%
Cc1ccc(C(=O)OCC(=O)c2ccc[nH]2)s1	-1.4%
CC(C)C(=O)Nc1cccc(C(=O)Nc2nnc(C(C)C)s2)c1	18.3%
O=C(c1cc(COc2cccc(C(F)(F)F)c2)on1)N1CCC(c2ccncc2)CC1	16.4%
CCCCOc1ccc(OCCCN2CCOCC2)cc1	15.5%&-7.9%&-17.7%
Cc1ccc(SCC(=O)Nc2cccc(-c3nc4cc(Cl)ccc4o3)c2C)cc1	6.2%
O=Cc1cccn1-c1c(C(=O)O)cnn1-c1ccccc1	-2.3%
CCC(C)(C)C(=O)Nc1ccc(C(N)=O)cc1	-8.6%
COC(=O)c1ccccc1OCc1cccc(C)n1	3.6%
O=C(c1cccs1)N1CCN(Cc2cccnc2)CC1	2.2%
CCOc1ccc(C(=O)N[C@H](C(=O)O)C(C)C)cc1	-4.7%
O=C(Nc1ccc(Cl)cn1)c1cccnc1	17.7%
CC(=O)c1cccc(NC(=O)C2C(c3ccccc3)C2(Cl)Cl)c1 (stereo not given)	13.8%
CS(=O)(=O)c1ccc(C(=O)N2CCN(C(=O)c3ccco3)CC2)cc1	-12.0%
O=C(NCCCN1CCOCC1)c1ccc(Cl)cc1[N+](=O)[O-]	3.4%
O=C(OCc1ccccc1Cl)c1cccnc1Cl	-2.6%
O=S(=O)(c1cccc(Br)c1)N1CCN(c2nc(-c3cccs3)nc3ccccc23)CC1	-6.2%
COc1ccc(S(=O)(=O)NC2CCCCCC2)c(OC)c1	-9.4%
COc1ccc(NC(=S)N2CCN(c3ccccn3)CC2)cc1OC	-17.9%
Cc1ccc(-c2cn3c(n2)sc2cc(C(=O)NC4CCCCC4)ccc23)cc1	12.4%
COc1ccc(-c2cc3c(=O)n(CC(=O)Nc4ccc(Cl)cc4)nc(C)n3n2)cc1	-18.0%
CC(C)CC(C(=O)NCC1CCCO1)N(C(=O)Cn1nnc(-c2ccc(F)cc2)n1)c1cccc(C(F)(F)F)c1 (stereo not given)	0.7%
O=C1NC(=O)/C(=C\c2ccc(Oc3ccc([N+](=O)[O-])cn3)cc2)S1	?
CCNC(=S)NNC(=O)C1CCN(Cc2ccccc2)CC1	-27.5%
Cc1ccc(C)c2nc3sc(C(=O)N4CCOCC4)c(N)c3cc12	-21.8%
O=C(Nc1ccc(Cl)c(Cl)c1)N1CCOCC1	-8.0%
COC(=O)c1ccc(C(=O)OC)c(NC(=O)CSCc2ccc(Br)cc2)c1	6.3%
CCN(CCCNC(=O)c1cc2c(=O)[nH]c3ccc(C)cc3c2s1)c1ccc(C)cc1	-12.0%
CC(=O)Nc1ccc(Oc2ccc([N+](=O)[O-])cc2Cl)cc1	-29.9%
CCOC(=O)c1cn(Cc2cccc(C)c2)nn1	?
COc1ccc(NS(=O)(=O)c2cccc(NC(=O)COc3ccc(OC)cc3)c2)cc1	-8.9%
Cc1snc(SCc2ccc(Cl)cc2)c1C#N	-7.4%
CCOc1ccc(N2C(=O)C(C)CNC2=S)cc1 (stereo not given)	?
Cc1ccccc1-n1c(SCC(=O)N2CCCCC2)nc(O)cc1=O	-25.3%
COC(=O)C1=CN(c2cc(C)cc(C)c2)C=C(C(=O)OC)C1c1cccc(F)c1	9.0%
c1cncc(CNc2cccc(-c3nc4ccccc4[nH]3)c2)c1	-25.3%
COC(=O)c1c(-c2ccc(OC)cc2)oc2ccc(-c3ccc(OC)nc3)cc12	-2.7%

Copied from the list:
CCNC(=S)NNC(=O)C1CCN(Cc2ccccc2)CC1 @ VDR inh: -27.5%
COC(=O)c1c(-c2ccc(OC)cc2)oc2ccc(-c3ccc(OC)nc3)cc12 @ VDR inh: -2.7%
Cc1ccc(C)c2nc3sc(C(=O)N4CCOCC4)c(N)c3cc12 @ VDR inh: -21.8%
COc1ccc(NS(=O)(=O)c2cccc(NC(=O)COc3ccc(OC)cc3)c2)cc1 @ VDR inh: -8.9%

Next records.
SMILES	VDR inh
Cc1c(C)c2c(c(C)c1O)CC[C@@](C)(C(=O)O)O2	-0.6%
Cc1cc(OCC(=O)N2CCN(c3ccccc3)CC2)c2c(C)c(C)c(=O)oc2c1	5.8%
CCN(CC)S(=O)(=O)c1ccc(NC(=S)NC(=O)CC(C)C)cc1	-15.4%
O=C(Nc1nnc(S(=O)(=O)N2CCOCC2)s1)c1ccccc1Cl	-4.6%&7.9%
CN1CC(=O)N(CC(=O)Nc2cccc3ccccc23)C1=O	-11.0%
CC1(C)Nc2ccccc2N(CCC(=O)N2CCOCC2)C1=O	-8.8%
CN(Cc1ccccc1)C(=O)C1CCCN1S(=O)(=O)c1ccc(Cl)cc1 (stereo not given)	10.0%
CC(C)(C)OC(=O)N1CCC(c2c(C(=O)N3CCN(c4ncccn4)CC3)cnn2-c2cccc(F)c2)CC1	6.3%
CCCCCN(C(=O)CCC(=O)OCC(=O)N(C)c1ccccc1)c1c(N)n(CCCC)c(=O)[nH]c1=O	-23.5%
Cn1c(=O)c(Oc2ccc(Cl)cc2)c(O)c2ccccc21	2.2%
CCCCNC(=O)NCc1cnn(C)c1C	-7.4%
Cc1ccc(Nc2cc(-n3cccn3)ncn2)c(C)c1	-5.2%
O=C(C1CCN(Cc2nc(-c3ccc(Cl)cc3)no2)CC1)N1CCOCC1	11.3%
C=CCSc1nc2sc3c(c2c(=O)n1-c1ccccc1)CCN(C)C3	6.9%
CC(=O)c1cc(C#N)c(Oc2ccc(F)cc2)nc1C	-5.2%

Rewritten with bars between the fields: two of the compounds above
SMILES | VDR inh
CCCCNC(=O)NCc1cnn(C)c1C | -7.4%
Cc1ccc(Nc2cc(-n3cccn3)ncn2)c(C)c1 | -5.2%

More results:
SMILES	VDR inh
Cc1ccc(S(=O)(=O)c2c(C)nn(-c3ccccc3)c2OC(=O)c2ccc(Br)o2)cc1	-23.6%
COc1ccc(C(=O)OC(COc2ccccc2)Cn2ccnc2)cc1 (stereo not given)	-19.1%
O=C(Cn1cnc2c(nnn2Cc2ccccc2)c1=O)NCc1ccccc1Cl	-7.0%
OC1CSc2nc3ccccc3n2C1 (stereo not given)	5.5%
CCOC(=O)C(Cc1ccnc2ccccc12)=NO	-20.9%
CC(=O)Nc1cccc(C(=O)/C=C/c2ccc(N(C)C)cc2)c1	-2.6%
CC(C)C(NS(=O)(=O)c1ccc2c3c(cccc13)C(=O)N2)C(=O)O (stereo not given)	4.4%
CCCCc1cc(=O)oc2cc(C)cc(OCC(=O)NCc3cccnc3)c12	-2.6%
CCCCC1CC(/C(C)=N/NC(N)=O)OC1=O (stereo not given)	-21.5%
COc1ccc(O)c(C(=O)/C=C/c2cc3ccccc3o2)c1	?
CC1(C)CC2C1CCC1(C)OC2(C)CCC1O (stereo not given)	1.8%
CC1CCC2(CC1)NC(=O)N(CC(=O)Nc1ccc3c(c1)CCC3)C2=O (stereo not given)	?
CC(=O)Nc1cc(C(=O)NCc2ccco2)ccc1Sc1ccc(F)cc1	-0.8%
CCOC(=O)C1C(=O)NCC1c1ccccc1 (stereo not given)	19.8%
O=C(Nc1ccc(Br)cc1)c1cc2ccccn2n1	-6.0%
COC(=O)C1=C(C)N(CCc2cc(OC)c(OC)c(OC)c2)C(=O)N[C@H]1c1ccc(Br)cc1	-2.6%
Cc1cc(=O)c2cccc(Br)c2[nH]1	17.1%
Cc1ccc(N(Cc2cc3ccc(C)cc3[nH]c2=O)S(=O)(=O)c2ccccc2)cc1	11.5%
Fc1ccc(N2CCN(Cc3cnc(Oc4ccc(Br)cc4)s3)CC2)cc1	-5.6%
CCCCC(=O)Nc1nc2c(OC)cc([N+](=O)[O-])cc2s1	13.5%
Cc1cc(C)c(S(=O)(=O)N(C)CC(N)=O)c(C)c1	-0.7%
Cc1cc(C(=O)NCC(c2ccco2)N2CCCC2)c2ccccc2n1 (stereo not given)	11.2%
Cc1ccccc1CNC(=O)CCS(=O)(=O)c1cc2c3c(c1)CCN3C(=O)CC2	-0.8%
COc1ccccc1CNC(=O)C(=O)c1cn(CC(=O)N2CCCC2)c2ccccc12	0.7%
O=C(Nc1ccc([N+](=O)[O-])cc1)Nc1ccc(Cl)cc1F	4.3%
Fc1ccc(C2=Nn3c(nnc3-c3n[nH]c4c3CCC4)SC2)cc1	12.7%

A portion of the library; count on the stated rates, not on these rows.
